Mtb growth: Mycobacterium tuberculosis H37Rv growth inhibition, putative kinase inhibitor library, confirmatory dose response (AID 2842). M. tuberculosis H37Rv growth inhibition; higher % means a stronger effect; some inactives read as strong as hits. inhibition, % at 10 µg/mL; hits with a dose series show IC90 in µg/mL. 24,000 tested, 5.2% active;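 active = confirmed in a dose series; inconclusive = mostly over 85% at the one dose but not retested; inactive = below 85% or not confirmed; about a fifth of its hits are not listed in these tables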;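 note: bacteria incubated one week before Alamar blue readout; 0% = bacteria only wells and 100% = bacteria with high antibiotic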
* marks the source's active call; other numbers are inactive results; ? = inconclusive.

Compound	Mtb growth
C=CCn1c(SCC(=O)Nc2ccc3c(c2)OCO3)nc2ccccc2c1=O	4.0%
Cn1c(=O)[nH]c(=O)c2c1nc(Sc1nc3ccccc3[nH]1)n2Cc1ccc(Cl)cc1	-11.0%
CC1CCN(c2nc3c(c(=O)[nH]c(=O)n3C)n2CCCc2ccccc2)CC1	11.4%
COC(CNc1ncnc2c1cnn2-c1ccc(C)c(Cl)c1)OC	15.5%
CCCCNC(=O)Cc1cc(=O)[nH]c(=O)[nH]1	-1.9%
Cc1ccc(Nc2nc(Nc3cccc(F)c3)nc3nccnc23)c(C)c1	6.5%
COC(=O)c1ccc2c(c1)C1CC(C)(O2)N(c2cccc(OC)c2)C(=O)N1 (stereo unspecified)	-15.0%
O=C(CSc1nnc2ccc(-c3ccccc3)nn12)Nc1cccc(Cl)c1	-11.6%
CCOC(=O)c1ccc(CC(=O)c2c(O)cc(O)cc2O)o1	-6.3%
CN(C1CCCCC1)S(=O)(=O)c1ccc(C(=O)Nc2sc3c(c2C#N)CCCC3)cc1	-4.5%
COc1cc(/C=N/NC(=O)c2ccccc2)ccc1OC(=O)c1cccnc1	-6.2%
Cc1cccc(NC(=O)CSc2ncnc3scc(-c4ccc(Cl)cc4)c23)c1	-7.3%
Cc1ccc(NC(=O)CSc2ccc3nnc(CCNC(=O)c4ccc(F)cc4)n3n2)cc1	1.7%
Cc1ccccc1OCCCC(=O)Nc1sc2c(c1C#N)CCC(C)C2 (stereo unspecified)	-13.5%
COc1ccc(-n2c(=O)[nH]c3c(C(N)=O)nc(-c4ccc(C)o4)nc32)cc1	1.4%
O=c1[nH]c(Cl)c(/C=N/Nc2ccccc2)s1	30.6%
O=c1[nH]cc(S(=O)(=O)N2CCN(c3ccccc3)CC2)c(=O)[nH]1	1.2%
Cc1ccc(S(=O)(=O)N(C)CCCC(=O)Nc2ccc(C)cc2C)cc1	6.9%
O=C(NC1CC(=O)N(c2ccccc2)C1)c1ccc(C(F)(F)F)cc1 (stereo unspecified)	-17.5%
CC1=C(C(=O)Nc2ccccc2)C(c2ccco2)C(C#N)=C(SCC(=O)c2ccccc2)N1 (stereo unspecified)	13.4%
COc1ccc(C(=O)Nc2nnc(-c3cccc(C)c3)s2)c(OC)c1	31.9%
O=C1CCc2cc(S(=O)(=O)Nc3cc(Cl)ccc3Cl)cc3c2N1CCC3	-11.9%
O=C(NCCO)c1ccc(Nc2nc(-c3ccccc3)c3cc(Cl)ccc3n2)cc1	-0.2%
COc1ccc(C(=O)c2cn(Cc3ccccc3OC)c3ccc(C)cc3c2=O)cc1	12.8%
O=C(CSc1nc2c(c(=O)n1-c1ccc(Cl)cc1)SCC2)Nc1ccc2c(c1)OCCO2	4.9%
CCN1CCc2c(sc(NC(=O)c3ccc([N+](=O)[O-])o3)c2C(N)=O)C1	6.91µg/mL*
O=C(O)C1CCCN(S(=O)(=O)c2ccc(Cl)s2)C1 (stereo unspecified)	-6.6%
Cc1ccc(-n2ncc3c(NNC(=O)c4cccc([N+](=O)[O-])c4)ncnc32)cc1Cl	?
CNC(=O)c1ccsc1NC(=O)C1=COCCO1	-5.8%
Cc1cc(C)cc(NC(=O)c2cnc3scc(C)n3c2=O)c1	0.6%
COc1ccc(CCNC(=O)C(=O)NCc2ccccc2Cl)cc1OC	8.2%
Cc1ccc2cc(CCNC(=O)C(C)C)c(=O)[nH]c2c1C	-4.8%
Cn1c(=O)[nH]c(=O)c2c1nc(SCCN1CCCCC1)n2CCCc1ccccc1	1.3%
COC(=O)c1ccc(CSc2nc(N)c(NC(=O)c3ccc(F)c(F)c3)c(=O)[nH]2)o1	2.0%
CC(=O)CSc1nnc(NC(=O)Nc2ccccc2)s1	-10.1%
COc1ccccc1CNc1nc2c(-c3ccc(Cl)cc3)nnn2c2ccccc12	-0.8%
NC(=O)c1c(NC(=O)CC2CCS(=O)(=O)C2)sc2c1CCCC2 (stereo unspecified)	-20.9%
COc1ccc(-c2nc(SC(CC(=O)NCc3cccnc3)c3ccc(OC)cc3)n[nH]2)cc1 (stereo unspecified)	-6.1%
Cc1ccccc1-c1noc(-c2nnn(-c3ccccc3Cl)c2C)n1	-4.9%
CC(=O)Nc1nnc(-c2ccc(Cl)s2)o1	81.3%
Cn1c(=O)[nH]c(=O)c2c1nc(N1CCN(C(=O)c3ccco3)CC1)n2CCSc1nc2ccccc2s1	6.2%
Cc1cc(C)cc(NC(=O)CSc2ccc3nnc(-c4cccc(F)c4)n3n2)c1	-2.4%
COc1ccc(C(=O)c2oc3ccccc3c2N)cc1OC	?
Cc1ccc(C(=O)Nc2cc3c4c(c2)CCC(=O)N4CCC3)cc1[N+](=O)[O-]	5.1%
Cc1cccc(Cn2cc3c(-c4ccccc4)nnc-3c3cc4c(cc32)OCCO4)c1	56.7%
O=C(Cc1cccs1)Nc1nnc(-c2ccccc2)s1	0.8%
Cc1ccc(N2CCCCn3c2nc2c3c(=O)n(CC(=O)O)c(=O)n2C)cc1	-7.1%
CCOc1ccc(-c2ccc(=O)n(CCNS(=O)(=O)Cc3ccccc3)n2)cc1	9.2%
CCCn1ccc2c(OCC(=O)NCCc3ccc(OC)c(OC)c3)cccc2c1=O	-9.7%
Cc1c(C(=O)Nc2ccccc2)sc2ncn(CC(=O)N3CCCC3)c(=O)c12	11.4%
CCOC(=O)N1CCc2c(sc(NC(=O)c3ccc4ccccc4c3)c2C#N)C1	-2.4%
O=C(Nc1nnc(-c2ccc(Cl)cc2)o1)c1cccs1	81.4%
Cc1ccc2nc(NC(=O)c3ccc(S(=O)(=O)N4CCc5ccccc54)cc3)sc2c1	2.6%
CCCCn1c(SCc2ccc(C)cc2)nc2c1c(=O)[nH]c(=O)n2C	16.1%
O=C(CCCc1ccccc1)NCCSc1ncc(-c2ccccc2)[nH]1	10.3%
CCC(Sc1ccccc1)C(=O)Nc1nnc(C)s1 (stereo unspecified)	19.7%
O=C(Nc1nc2c(Cl)cccc2s1)c1ccccc1Oc1ccccc1	14.4%
CC(=O)ON1C(=O)c2cccc3c([N+](=O)[O-])ccc(c23)C1=O	52.4%
Clc1ccc(/C=N/Nc2ncnc3nc[nH]c23)cc1	25.0%
O=C(COc1ccc(Cl)cc1Cl)Nc1cccc(-c2ccc3nncn3n2)c1	-6.3%

More results:
Compound	Mtb growth
Nc1nc(SCC(=O)Nc2cccc(F)c2)[nH]c(=O)c1NC(=O)c1ccc(Br)cc1	-1.3%
O=c1[nH]c(N/N=C/c2ccc(Cl)cc2Cl)nnc1-c1ccccc1	-2.8%
Cc1ccc(Nc2nc(NCc3ccco3)nc3nccnc23)cc1C	-6.9%
CCOC(=O)c1nn(-c2ccc(OC)cc2)c(=O)c2c(NC(=O)c3ccc(S(=O)(=O)N(C)C)cc3)scc12	-10.0%
Cc1nnc(SCC(=O)Nc2ccc(F)cc2F)n(N)c1=O	-11.3%
Cc1ccnc(SCCn2c(N3CCOCC3)nc3c2c(=O)n(C)c(=O)n3C)n1	2.4%
COc1ccc(Cl)cc1NC(=O)CSc1nc(N)c(NC(=O)c2ccco2)c(=O)[nH]1	0.8%
CC(=O)c1c(C)oc2ccc(NS(=O)(=O)c3cc4c5c(cccc5c3)C(=O)NC4=O)cc12	-12.0%
O=C(CSc1nnc2ccc(-c3cccc([N+](=O)[O-])c3)nn12)NCc1ccco1	0.5%
CC(C)(C)C(=O)Nc1c(C(=O)Nc2cccc(Cl)c2)oc2ccccc12	-2.2%
Oc1c(C(c2cccs2)N2CCN(c3cccc(Cl)c3)CC2)sc2ncnn12 (stereo unspecified)	4.8%
Cc1ccc2cc(CCNC(=O)C3CCCC3)c(=O)[nH]c2c1C	-2.6%
CCN1CCc2c(sc(NC(=O)c3ccccc3Oc3ccccc3)c2C(N)=O)C1	48.2%
CCSc1cc(C)[nH]c(=O)n1	5.4%
Fc1cccc(Cl)c1CSc1ccc2nnc(-c3ccncc3)n2n1	-0.6%
CCC(=O)Nc1nnc(-c2ccc(Br)cc2)o1	6.26µg/mL*
Cc1nn(-c2ccccc2)c(C)c1Sc1n[nH]c(=O)[nH]c1=O	2.7%
NC(=O)c1oc2ccccc2c1NC(=O)c1ccc2ccccc2c1	-3.7%
CCOC(=O)c1ccc2nc(NC(=O)c3ccc(Cl)s3)sc2c1	49.7%
COc1ccc(C(=O)Nc2c(C(=O)Nc3ccccc3)oc3ccccc23)cc1OC	18.9%
O=C(Nc1cc(F)ccc1F)c1ccc2nccnc2c1	14.8%
CC1Cc2nc(SCC(=O)Nc3ccc(Br)cc3)n(Cc3ccccc3)c(=O)c2S1 (stereo unspecified)	5.5%
Cc1ccc(NC(=O)c2oc3ccccc3c2NC(=O)c2cccc(Br)c2)cc1C	-3.3%
Cc1cc2cc(CCNC(=O)Cc3cccc4ccccc34)c(=O)[nH]c2cc1C	2.9%
Cc1cc(C)cc(NC(=O)CSc2ncc(S(=O)(=O)c3ccccc3)c(=O)[nH]2)c1	-6.6%
COC(CNC(=O)C(=O)Nc1cc2c3c(c1)CCN3C(=O)CC2)OC	-7.9%
COc1ccccc1NC(=O)C1=C(C)NC(=O)NC1c1ccc(Cl)cc1Cl (stereo unspecified)	8.3%
CCCCOc1cccc(C(=O)Nc2nnc(-c3ccccc3S(C)(=O)=O)o2)c1	76.3%
Cc1cccc(NC(=O)CSC2=C(C#N)C(c3ccccc3C(F)(F)F)C3=C(CCCC3=O)N2)c1 (stereo unspecified)	5.7%
CCOC(=O)C1=C(C)NC(=S)NC1c1ccc(-c2ccccc2Cl)o1 (stereo unspecified)	8.3%

The closing two compounds of the part before come first, to join the parts:
Compound	Mtb growth
Cc1cccc(NC(=O)CSC2=C(C#N)C(c3ccccc3C(F)(F)F)C3=C(CCCC3=O)N2)c1 (stereo unspecified)	5.7%
CCOC(=O)C1=C(C)NC(=S)NC1c1ccc(-c2ccccc2Cl)o1 (stereo unspecified)	8.3%
CCCCCCn1c(SCC(N)=O)nc2c1c(=O)n(C)c(=O)n2C	-2.9%
Nc1ncnc(Nc2cccc3ccccc23)c1[N+](=O)[O-]	6.1%
Cc1cccc(C(=O)Nc2nnc(-c3ccccc3)s2)c1	2.4%
CCC(CC)C(=O)NCCc1cc2ccc(OC)cc2[nH]c1=O	-11.1%
Clc1ccc(-n2ncc3c(NCc4ccccn4)ncnc32)cc1Cl	1.0%
O=C(Nc1nnc(-c2ccccc2)o1)c1ccco1	2.78µg/mL*
CC1=C(C(=O)Nc2ccc(Cl)cc2)C(c2ccc(Cl)cc2)NC(=O)N1 (stereo unspecified)	77.6%
Cc1cccc(Cn2c(NCc3ccccc3)nc3c2c(=O)[nH]c(=O)n3C)c1	12.6%
O=c1[nH]c(SCc2cccc(Cl)c2)nc2[nH]ncc12	5.1%
Cc1ccc(C)c(-c2nnc(NC(=O)c3cccc(Br)c3)o2)c1	12.6µg/mL*
CC(C)(C)n1nc2c(c1NC(=O)c1ccc(Br)cc1)CS(=O)C2 (stereo unspecified)	6.4%
COc1ccc(-c2nc(SCC(=O)Nc3cc(C(F)(F)F)ccc3Cl)c3c(=O)n(C)c(=O)n(C)c3n2)cc1	0.6%
CC(C)Oc1ccc(C(=O)Nc2c3c(nn2-c2ccc(Cl)cc2)CSC3)cc1	3.3%
COc1cccc(NC(=O)Cn2cc(C(=O)c3ccc(C)c(C)c3)c(=O)c3cc4c(cc32)OCCO4)c1	13.9%
CCN(CC)c1ccc(C(=O)Nc2sc3c(c2C#N)CCC(C)C3)cc1 (stereo unspecified)	28.7%
CSc1nnc(C)c(=O)n1COC(=O)/C=C/c1ccc2c(c1)OCO2	11.2µg/mL*
COc1cccc(NC(=O)CSc2nc(N)c(NC(=O)c3ccc(F)cc3)c(=O)[nH]2)c1	-7.4%
COc1ccc2nc(-c3ccc(OC)c(NC(=O)c4ccc(C)c(C)c4)c3)cn2n1	-3.1%
COc1ccc(NC(=O)C2Cc3ccccc3CN2S(=O)(=O)c2ccc(C)cc2)cc1 (stereo unspecified)	-6.7%
COc1ccc(N2C(=O)C(Cl)=C(Sc3nc(C)cc(C)c3C#N)C2=O)cc1	-5.0%
O=c1[nH]nc(SCc2ccc(Cl)cc2Cl)c(=O)[nH]1	-1.2%
O=C(NCCc1nnc2ccc(SCc3ccccc3)nn12)c1ccc(F)cc1	15.1%
CCOC(=O)c1nn(-c2ccc(C)cc2)c(=O)c2c(NC(=O)c3ccc(F)c(F)c3)scc12	1.3%
Cc1ccc(-c2csc(NC(=O)CN3C(=O)CCC3=O)n2)cc1	2.0%
Cc1ccc(CSc2nc3c(c(=O)n(C)c(=O)n3C)n2CCC(C)C)cc1	76.4%
Cc1nnc(NC(=O)CC23CC4CC(CC(C4)C2)C3)s1	9.3%
COCCn1c(=NC(=O)CSCC(=O)Nc2nccs2)sc2ccccc21	3.5%
c1ccc(Nc2nc(N3CCOCC3)nc3nccnc23)cc1	0.5%
O=C(CS(=O)(=O)c1ccccc1)Nc1cccc(-c2nc3ccccc3s2)c1	1.0%
Cc1oc(-c2ccc(Cl)cc2)cc1-c1nn2c(-c3ccoc3C)nnc2s1	5.9%

For convenience, part of the list above:
Compound	Mtb growth
CCCCCCn1c(SCC(N)=O)nc2c1c(=O)n(C)c(=O)n2C	-2.9%
Nc1ncnc(Nc2cccc3ccccc23)c1[N+](=O)[O-]	6.1%

Copied from the list:
Cc1cccc(Cn2c(NCc3ccccc3)nc3c2c(=O)[nH]c(=O)n3C)c1 – Mtb growth: 12.6%
COc1ccc(NC(=O)C2Cc3ccccc3CN2S(=O)(=O)c2ccc(C)cc2)cc1 (stereo unspecified) – Mtb growth: -6.7%
c1ccc(Nc2nc(N3CCOCC3)nc3nccnc23)cc1 – Mtb growth: 0.5%
CCOC(=O)c1nn(-c2ccc(C)cc2)c(=O)c2c(NC(=O)c3ccc(F)c(F)c3)scc12 – Mtb growth: 1.3%
Cc1oc(-c2ccc(Cl)cc2)cc1-c1nn2c(-c3ccoc3C)nnc2s1 – Mtb growth: 5.9%
O=C(CS(=O)(=O)c1ccccc1)Nc1cccc(-c2nc3ccccc3s2)c1 – Mtb growth: 1.0%

Bioassay records: PubChem, Southern Research Institute

Only part of the results is shown; the hit share may differ from the screen's.
